BasE inh: BasE siderophore enzyme inhibitors, primary screen, biochemical, Acinetobacter baumannii ATCC 17978, fluorescence polarization | 84,000 compounds, 0.1% hits | inhibition, % (concentration not given with the values) | purified BasE, fluorescence polarization binding displacement | AID 485350, 2010;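 active means both replicates above 25% with normal brightness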;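 further: 0% = negative plate control signal and 100% = positive plate control signal; stock transfer was 100 nL into about 30 µL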
KSHV LANA nucl: inhibitors of KSHV LANA-nucleosome binding, primary screen, biochemical, fluorescence polarization, FITC-LANA1-23, chicken nucleosomes. z-score (concentration not given with the values). 51,000 compounds, 0.3% hits. FITC-LANA1-23 / chicken nucleosome fluorescence polarization; hits give low values. AID 720717, 2013;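 active means both repeat wells score below -2 in polarization z-score versus plate sample wells, excluding overly bright wells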;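 further: 100 nL library stock added to about 30 µL; numbers are from one replicate; some results filed as inactive read as strong as hits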
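test system = FITC-LANA peptide and chicken nucleosomes | amount = 240 nM purified chicken nucleosomes (480 nM peptide binding sites), final | reagent = 50 nM FITC-LANA1-23 probe | medium = TEN-BT buffer, pH 7.5 | doses = single compound addition by pin transfer, 100 nL per well | timing = 10–45 min, room temperature | detection = fluorescence polarization | repeats = duplicate plates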
Numbers without * were called inactive; x = no result given; & = joins results of further samples. The list is partial; count on the stated rates, not on these rows.

SMILES | BasE inh | KSHV LANA nucl
O=C(CN1CCC(n2nnc3ccccc32)CC1)Nc1ccccc1Cl | 0.0 | 0.54
COc1ccccc1N(C)C(=O)c1cc(S(=O)(=O)N2CCCC2)cn1C | 1.3 | 0.34
O=C(O)CON=C1c2ccccc2-c2ccccc21 | -3.8 | x
CC1(C)OC(=O)C(=Cc2ccc(-c3ccc(S(N)(=O)=O)cc3)o2)C(=O)O1 | 1.6 | 0.47
COc1ccc(CN(C)C(=O)CSc2nc(C)cs2)cc1OC | -1.1 | x
NC(=O)C1CCN(C(=O)CCC(=O)N2CCOc3ccc(Cl)cc32)CC1 | -0.1 | 0.11
NNC(=O)CCN1CCCCC1 | 3.1 | 0.47
COc1ccc(CN(C)Cc2nc3cc(Cl)ccc3c(=O)[nH]2)c(OC)c1 | -1.3 | x
CN1C(=O)C(=Cc2cccn2C(C)(C)C)C(=O)N(C)C1=S | -2.1 | -0.3
COCCn1c(N)c(-c2nc3ccccc3[nH]2)c(O)c1N=Nc1ccc(F)c(F)c1 | 20 | x
CC(Sc1nnc2c(Cl)cc(Cl)cn12)c1nnc(-c2cccs2)o1 (stereo not given) | 0.0 | x
O=P(O)(CN1CCCCC1)C1CCCCC1O (stereo not given) | -0.1 | -0.98
CCOC(=O)c1ccc(-c2coc3cc(OC(C)=O)c(CC)cc3c2=O)o1 | 3.2 | x
Cc1ccc(NC(=O)CN(C)C(=O)Cc2ccccc2F)cc1 | 0.2 | x
CCOC(=O)C(C)ON1C(=O)c2ccccc2C1=O (stereo not given) | -0.4 | 0.48
COc1ccc(CNC(=O)Cn2cnc3ccccc32)cc1OC | 2.7 | x
Cc1noc(C)c1CSc1nc(N)c(-c2nc(-c3ccccc3)cs2)cc1C#N | -1.6 | x
O=C1OCCC1n1nnc(-c2ccc(F)cc2)n1 (stereo not given) | 0.1 | x
CN1/C(=C/C(=O)C2CCC2)C(C)(C)c2ccccc21 | -0.7 | x
O=C(CSc1nccn1-c1ccc(F)cc1)Nc1ccccc1 | -0.4 | 0.55
COc1ccc(CN2CCN(C(=O)Cn3c(=O)c4cccn4c4cccnc43)CC2)c(OC)c1OC | -2.4 | 0.23
CC(C)(C)C1=CC=Nn2cnnc2S1 | 2.7 | 0.35
O=C(O)CCSc1n[nH]c(=S)s1 | 0.8 | x
O=C(NC(=S)Nc1nc(-c2ccc(Cl)cc2)cs1)C1CC1 | 0.9 | x
CCC(=O)Nc1ccccc1N1CCN(C(=O)CC)CC1 | 1.3 | 0.59

Continuation:
SMILES | BasE inh | KSHV LANA nucl
Cc1ccc2c(Cl)cc(Cl)c(OC(=O)C3CC3)c2n1 | 1.8 | x
O=C(O)C1CCOCC1 | -2.7 | -0.38
N#Cc1c(-c2ccco2)c2c([nH]c1=O)-c1ccccc1OC2 | 17 | -1.2
COc1c(O)c2c(=O)cc(OC)c3c4c(OC)cc(=O)c5c(O)c(OC)c(C[C@@H](C)OC(=O)c6ccccc6)c(c(c1C[C@@H](C)OC(=O)Oc1ccc(O)cc1)c23)c54 | -2.1 | 0.3
CCOC(=O)CCn1ccc(=O)[nH]c1=O | 2.8 | -0.73
C=CCSc1ccccc1N | -0.8 | x
O=C(CN1N=C(c2ccccc2)CCC1=O)NCCN1CCN(c2ccccc2F)CC1 | 1.6 | -1.3
Cc1ccc(NC(=O)C2CC2)cc1NC(=O)C1CC1 | 2.4 | 0.12
CC1Cc2ccccc2N1C(=O)CSc1nnc(CSc2ncccn2)n1C (stereo not given) | -3.7 | -1.1
CC(=O)O/N=C(\C)c1[nH]c(C)c(/C(C)=N/OC(C)=O)c1C | -2.3 | -0.18
NN1C(=O)c2ccccc2C1=O | 1.7 | x
CN(Cc1ccco1)C(=O)CSc1nn2c(=O)c(C(C)(C)C)nnc2s1 | 3.0 | x
N#CC1C(=S)NC2=C(CCCC2)C12CCCCC2 (stereo not given) | -1.6 | 0.51
CCOc1ccc(-c2nc(CN3CCN(S(=O)(=O)c4ccc(Cl)cc4)CC3)cs2)cc1 | -4.9 | x
CCCCNC(=O)C1CCN(S(=O)(=O)c2cnc[nH]2)CC1 | 2.9 | -0.12
OCCc1nc2ccccc2s1 | 0.5 | x
N#Cc1c2c(c(-n3ccnc3)n3c1nc1ccccc13)CCC2 | -2.6 | 2.1
CC1CCC2(CC1)NC(=O)N(NC(=S)NCc1ccc3c(c1)OCO3)C2=O (stereo not given) | 0.9 | x
COc1ccc2c(CC(=O)OCc3cccc(C#N)c3)coc2c1 | 1.8 | x
COc1ccc(-c2cc(C(F)F)n3ncc(C(=O)N4CC(C)OC(C)C4)c3n2)cc1 (stereo not given) | -0.1 | -0.56
O=S(=O)(c1ccccc1)c1ncc(C(F)(F)F)cc1Cl | x | 1.1
C=CCc1ccc(OCC(=O)ONN)c(OC)c1 | 5.8 | 0.5
O=C(NCc1ccccc1)c1ccc2c(c1)N(Cc1ccccc1)C(=O)CS2=O (stereo not given) | 3.5 | -0.7
O=C(CSc1ccc2c(c1)CCC2)NN1C(=O)NC2(CCCCC2)C1=O | 1.4 | x
CC(NC(=O)CCN1C(=O)NC2(CCCC2)C1=O)c1cc(F)c(Cl)cc1Cl (stereo not given) | -0.6 | x

Next compounds.
SMILES | BasE inh | KSHV LANA nucl
CC1(C)[C@H](C(=O)O)N2C(=O)C[C@H]2S1(=O)=O | x | 0.73
NC(=O)C1CCCCN1C(=S)Nc1ccc(OC(F)F)cc1 (stereo not given) | -2.0 | x
CC1Cc2cc(S(=O)(=O)NC3CCCC3)ccc2N1C(=O)C1CC1 (stereo not given) | 1.4 | -0.24
Cc1noc(NS(=O)(=O)c2ccc(N3CC(O)=C(c4ccccc4)C3=N)cc2)c1C | 9.9 | x
CCc1ccc(NC(=O)CCN2C(=O)C3C4C=CC(C4)C3C2=O)cc1 (stereo not given) | -2.1 | -0.11
O=C(CSc1n[nH]c(-c2cccs2)n1)N1CCCc2ccccc21 | -2.3 | x
Cn1ccsc1=NC(=O)c1ccccc1OC(F)F | 2.6 | x
CCCCCn1c(=N)c(C#N)cc2c(=O)n3ccccc3nc21 | -0.8 | x
CCCCN1CCCCC1C(=O)Nc1c(C)cccc1C (stereo not given) | -2.0&-0.8 | -0.47&0.5&0.28&0.26
COc1cc(C(=O)O)cc(I)c1OC1CCCC1 | 3.3 | 2.2
O=S1(=O)CC2C(C1)N(c1ccccc1)C(=S)N2c1ccccc1 (stereo not given) | 0.8 | x
CCc1ccc(-n2c(N)c(C(=O)OC)c3nc4ccccc4nc32)cc1 | 0.2 | x
N#Cc1c(NC(=O)CSc2ccccc2)sc2c1CCC2 | 2.6 | x
CCN(CC)C(=O)c1cccc(Nc2ccc(-c3ccccc3OC)nn2)c1 | 2.5 | -0.027
CCOC(=O)CN1C(=O)C(O)(CC(=O)c2ccc3c(c2)OCO3)c2ccccc21 (stereo not given) | -3.1 | 2.3
CCn1nc(C)c(CCNC(=O)c2cc3c(=O)n(Cc4ccc(OC)cc4)ccc3nc2C)c1C | -2.6 | -1.5
O=c1[nH]c2ccc(NC(=S)Nc3ccc(S(=O)(=O)N4CCOCC4)cc3)cc2[nH]1 | 0.9 | x
COc1ccc(Nc2nc(C(=O)NCc3ccco3)cs2)cc1 | 0.1 | -0.19
CCC(=O)Nc1ccc(NCc2ccccc2C)cc1 | -2.0 | -0.98
COC(=O)c1c(F)c(F)c(F)c(F)c1C(=O)OC | -2.4 | 0.64
COc1ccc(/C=C2\CSc3ccccc3C2=O)cc1 | -0.9 | 0.33
CN(/N=C(\C#N)C(=O)C1CC1)c1ccc(Cl)cc1 | 0.6 | x
CCOC(=O)C1CCN(CN2C(=O)C(=Nc3ccc(C)c(C)c3)c3ccccc32)CC1 | -2.8 | -0.064
CCC1CSC(Nc2ccccc2C(F)(F)F)=N1 (stereo not given) | 3.3 | x
OC1(C(F)(F)F)CC(c2ccc3c(c2)Nc2ccccc2S3)=NN1 (stereo not given) | -1.3 | 1.1

The listing continues:
SMILES | BasE inh | KSHV LANA nucl
COc1ccc(NC(=O)C2CC(=O)NC(=Nc3ccccc3)S2)cc1 (stereo not given) | -1.7 | x
CC(=O)Nc1nnc(CC(=O)N/N=C/c2ccc(Cl)cc2)s1 | -0.3 | 1.3
O=C(COC(=O)c1cc2ccccc2[nH]1)c1ccccc1 | 1.4 | x
CCOc1nc2cccnc2n(Cc2cccc(Cl)c2)c1=O | -3.1 | 0.37
CCn1cc(C(=O)NN)c(=O)c2cc(F)c(NC3CCCCC3)cc21 | -3.4 | 0.86
CC1CCCN(C(=O)C(C)OC(=O)c2c3c(nc4ccccc24)CCN(C)C3)C1 (stereo not given) | 2.7 | x
CSc1nc(C)cc(OCC(=O)NCCOc2ccc(C)cc2)n1 | -1.0 | 1.2
Cc1cc(=O)oc(C)c1C(=O)OCC(=O)c1ccccc1 | -1.0 | -0.0045
COc1ccc(S(=O)(=O)N2CCN(S(=O)(=O)c3ccccc3)CC2)cc1 | 1.2 | 0.74
O=C(CSc1c(-c2ccccc2)c2cc(Cl)ccc2[nH]c1=O)NC1CCCC1 | 1.1 | x
O=S(=O)(c1ccc(-c2ccc(S(=O)(=O)N(CCO)CCO)cc2)cc1)N(CCO)CCO | 0.6 | -0.74
CCC(Sc1nnc(C)s1)C(=O)Nc1nccs1 (stereo not given) | -1.1 | 1.9
CSc1cccc(C(=O)Nc2sccc2C#N)c1 | 1.0 | -0.098
COCC(C)NCc1cc(C)c(OC)cc1C (stereo not given) | -0.3 | -1.2
CN(C)C(=O)COC(=O)c1ccccc1NCCO | 1.1 | x
O=C(Nc1ccc(F)c(Cl)c1)c1ccc(N2C(=O)CCC2=O)cc1 | -2.2 | x
Nc1c(C(=O)N2CCCC2)nnn1-c1ccc(F)cc1 | 4.7 | -0.31
O=C1CSC(=Nc2ccccc2)N1S(=O)(=O)c1ccccc1 | 0.3 | x
CC(C)S(=O)(=O)/C(C#N)=C/Nc1cccnc1 | 5.3 | 0.13
CCCC(CCC)C(=O)N1CCN(c2ccc(NCc3ccccc3)nn2)CC1 | -1.7 | 0.64
COc1ccc(C(=O)NCc2cn3ccccc3n2)cc1 | -0.9 | 2.6
C=CCNC(=O)c1ccc(S(=O)(=O)N(CC)c2ccccc2)cc1 | 3.5 | x
CC(C)CNc1ncnc2c1cnn2-c1ccccc1 | -3.3 | 1.1
O=C(Nc1ccc(N2CCCCC2)cc1)c1ccc(=O)oc1 | 12 | x
Nc1cccc2c1C(=O)N(C(=O)/C=C/c1cccc(F)c1)C2=O | 4.6 | x

Remaining list, next part
SMILES | BasE inh | KSHV LANA nucl
Cc1ccc(-c2csc(C3=C(O)CN(N)C3=N)n2)cc1 | -0.2 | x
CCCn1c(N)c(C(=O)CN2CCCc3ccccc32)c(=O)[nH]c1=O | 1.5 | x
O=C1Nc2cc(C(F)(F)F)ccc2N2CCCC12 (stereo not given) | x | 0.082
Cc1noc(C)c1C(=O)N1CCCSc2ccccc21 | 1.2 | x
O=C(c1ccco1)N1CCN(C(=O)C2CC(=O)N(c3ccccc3)C2)CC1 (stereo not given) | 1.5 | -0.023
CCCc1nc2ccccc2c(C(=O)OC2CCOC2=O)c1CC (stereo not given) | 1.0 | x
NC(N)=NS(=O)(=O)Cc1ccccc1 | -0.9 | 2.2
CC(C)Oc1ccc(C(=O)NC(=S)N2CCOCC2)cc1 | -5.0 | 1.8
CC(=O)Oc1cc2c3c(c(=O)oc2cc1C)CCCC3 | -3.0 | 1.3
O=C1NCCc2c(OCC(=O)N3CCCc4ccccc43)cccc21 | -0.2 | 0.078
O=C(Nc1ccccc1C(F)(F)F)c1ccccc1Cl | -2.0 | x
NC(=O)CSc1nnnn1-c1cccnc1 | 1.6 | 0.13
CC(CO)(CO)NC(=O)Cc1cc(=O)[nH]c(=O)[nH]1 | 1.4 | -0.62
CCn1c(-c2ccc3c(c2)OCCO3)cnc1SC(C)C(=O)NC(N)=O (stereo not given) | 2.8 | x
Cn1c(-c2ccccc2)c(/C=N/NC(=O)c2cccs2)c2ccccc21 | -0.6 | x
COc1cc(OC)cc(C(=O)NCC(=O)N2CC(C)CC(C)C2)c1 (stereo not given) | -0.8 | x

Rewritten as tab-separated lines: part of the list above.
molecule	BasE inh	KSHV LANA nucl
O=C(Nc1ccc(N2CCCCC2)cc1)c1ccc(=O)oc1	12	x
Nc1cccc2c1C(=O)N(C(=O)/C=C/c1cccc(F)c1)C2=O	4.6	x
Cc1ccc(-c2csc(C3=C(O)CN(N)C3=N)n2)cc1	-0.2	x
CCCn1c(N)c(C(=O)CN2CCCc3ccccc32)c(=O)[nH]c1=O	1.5	x
O=C1Nc2cc(C(F)(F)F)ccc2N2CCCC12 (stereo not given)	x	0.082
Cc1noc(C)c1C(=O)N1CCCSc2ccccc21	1.2	x
O=C(c1ccco1)N1CCN(C(=O)C2CC(=O)N(c3ccccc3)C2)CC1 (stereo not given)	1.5	-0.023
CCCc1nc2ccccc2c(C(=O)OC2CCOC2=O)c1CC (stereo not given)	1.0	x
NC(N)=NS(=O)(=O)Cc1ccccc1	-0.9	2.2
CC(C)Oc1ccc(C(=O)NC(=S)N2CCOCC2)cc1	-5.0	1.8
CC(=O)Oc1cc2c3c(c(=O)oc2cc1C)CCCC3	-3.0	1.3
O=C1NCCc2c(OCC(=O)N3CCCc4ccccc43)cccc21	-0.2	0.078
O=C(Nc1ccccc1C(F)(F)F)c1ccccc1Cl	-2.0	x
NC(=O)CSc1nnnn1-c1cccnc1	1.6	0.13
CC(CO)(CO)NC(=O)Cc1cc(=O)[nH]c(=O)[nH]1	1.4	-0.62

Bioassay records deposited in PubChem BioAssay by ICCB-Longwood Screening Facility, Harvard Medical School.
